TROY NFkB inh: blocks TROY-dependent signaling in reporter cells. actives 0.98% (n = 360,000). inhibition, % at 10 µM. Q293 LMP1-TROYcd NF-kB luciferase reporter, 4 h;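 active means compounds whose plate-normalised and pattern-corrected inhibition of the luciferase reporter signal at the single screening dose is 50% or more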
Starred values were filed as active, the others as inactive. Some of the compounds tested; most or all hits stand in other tables.

Sample of the layout, 2 compounds:
SMILES	TROY NFkB inh
Nc1nc2c(ncn2COCCO)c(=O)[nH]1	-12.9
COc1ccc2cc([C@H](C)C(=O)O)ccc2c1	-4.8

This part in full, from the start:
SMILES	TROY NFkB inh
Nc1nc2c(ncn2COCCO)c(=O)[nH]1	-12.9
COc1ccc2cc([C@H](C)C(=O)O)ccc2c1	-4.8
COc1ccc(/C=C/C(=O)O)cc1OC	-2.9
CCN(CC)CCNC(=O)c1ccc(N)cc1	-14.9
CCN(CC)CC(=O)Nc1c(C)cc(C)cc1C	3.7
O=C(N/N=C/c1ccc([N+](=O)[O-])s1)c1cccnc1	-0.1
Cc1nnc(SCC2=C(C(=O)O)N3C(=O)C(NC(=O)Cn4cnnn4)C3SC2)s1 (stereo not drawn)	5.6
O=C(O)c1cccnc1SCCc1ccccc1	1.1
COc1ccc(CCN(C)CCCC(C#N)(c2ccc(OC)c(OC)c2)C(C)C)cc1OC (stereo not drawn)	-12.2

Given bar-delimited: 2 of the compounds above.
mol | TROY NFkB inh
O=C(N/N=C/c1ccc([N+](=O)[O-])s1)c1cccnc1 | -0.1
Cc1nnc(SCC2=C(C(=O)O)N3C(=O)C(NC(=O)Cn4cnnn4)C3SC2)s1 (stereo not drawn) | 5.6
